# Sa growth inh: inhibitors of Staphylococcus aureus growth at 42 °C. S. aureus RN4220 growth, OD600, 20 h; hits give low values. relative growth, % (test concentration not listed). 170,000 tested, 0.53% active. AID 720641;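 active means growth at 42 °C up to 50% and 20 or more points under that at 30 °C, or under 10% at both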;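 further: 300 nL library stock went into each well; scaled to the means of positive and negative controls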
# GIV-Gai inh: inhibitors of GIV GBA-motif binding to rat Galpha-i3 | P08753 | Galpha-i3/FITC-GIV peptide fluorescence polarization, 90 min; hits give low values; scaled: aluminum fluoride 0%, vehicle 100% | percent of control (FP), % (concentration not given with the values) | 210,000 tested, 0.42% active | AID 1224905;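 active means replicate mean at 85% of control or lower, very high polarization wells dropped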;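 further: wells of about 15 µL received 100 nL stock; the first replicate is given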
# Target sequence (P08753 whole entry, looked up): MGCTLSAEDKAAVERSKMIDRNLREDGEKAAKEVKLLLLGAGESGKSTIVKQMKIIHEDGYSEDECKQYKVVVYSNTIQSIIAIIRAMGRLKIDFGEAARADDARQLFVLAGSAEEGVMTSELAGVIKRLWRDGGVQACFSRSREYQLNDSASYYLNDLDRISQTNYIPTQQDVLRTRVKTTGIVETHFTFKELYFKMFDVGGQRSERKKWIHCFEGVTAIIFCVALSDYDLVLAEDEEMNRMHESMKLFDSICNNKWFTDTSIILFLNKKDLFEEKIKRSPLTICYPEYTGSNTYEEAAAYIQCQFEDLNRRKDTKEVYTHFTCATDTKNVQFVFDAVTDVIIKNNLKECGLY
# HCMV UL50-53 inh: inhibitors of HCMV UL50-UL53 nuclear egress complex interaction | HTRF UL50-UL53 interaction, normalized percent inhibition | inhibition, % (concentration not given with the values) | 190,000 tested, 0.15% active;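 active means both replicates at 50% or more, plus weaker picks with an unusually low signal ratio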;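 further: stock transfer was 100 nL into about 20 µL; 0% = negative control wells and 100% = wells with untagged competitor protein; inactives centre near -12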
# Sa growth inh second temp: further read-out of Sa growth inh, marked with its call; relative growth, %; measured here: growth at 30 °C;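 optical density after 20 h as mean of two plates; 100% = untreated growth and lower means inhibition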
# Starred values were filed as active, the others as inactive; x = not tested or not shown; & = joins results of further samples.
(1) CCCCNS(=O)(=O)c1ccc2c(c1)nc(CCC)n2CCCC
(2) COC(=O)C1CCN(CC(O)COCc2ccc(OC)c(OC)c2)CC1 (configuration not stated)
(3) Cn1nc(C(F)(F)F)c(-c2ccccc2)c1NS(C)(=O)=O
(4) N#Cc1c(N)nc(SCC(=O)Nc2ccc([N+](=O)[O-])c3ccccc23)c(C#N)c1-c1ccco1
(5) C#CCN1CCS(=O)(=O)CC1

screen / no.	1	2	3	4	5
Sa growth inh	94	80	138	x	96
Sa growth inh second temp	86	95	102	x	92
GIV-Gai inh	x	x	100	100	108
HCMV UL50-53 inh	-6	-11	-9	-33	-16

(6) CC(C)(C)NC(=O)CN1C(=O)COc2ccc(C(=O)N3CCCC3)cc21
(7) CCOC(=O)c1c[nH]c2ccc(C(F)(F)F)cc2c1=O
(8) O=C(O)C1CCN(C(=O)NC2CCCCC2)CC1
(9) CS(=O)(=NC=C(C#N)C#N)c1ccc(Cl)cc1 (configuration not stated)
(10) Cc1ccc2c(c1)C(c1ccc(F)cc1)N(C(=O)COc1ccc(Cl)cc1Cl)CC(=O)N2 (configuration not stated)

screen / no.	6	7	8	9	10
Sa growth inh	x	x	113	102	88
Sa growth inh second temp	x	x	91	91	69
GIV-Gai inh	103	100	102	110	103
HCMV UL50-53 inh	-18	-15	x	-17	-12

(11) CC1(C)CC(=O)C2=C(C1)NC(=O)CC2c1cccc(O)c1 (configuration not stated)
(12) O=C1CCC(=O)N1CCSSCCN1C(=O)CCC1=O
(13) CCNc1nc(-c2cc(C)n(-c3ccc4c(c3)OCCO4)c2C)cs1
(14) COc1cc2ncnc(NC3CCCCC3)c2cc1OC
(15) O=S(=O)(c1cccc(Cl)c1)N1CCN(c2nc3ccccc3n3cccc23)CC1

screen / no.	11	12	13	14	15
Sa growth inh	x	101	90	102	x
Sa growth inh second temp	x	93	92	94	x
GIV-Gai inh	99	99	x	133	101
HCMV UL50-53 inh	-10	-14	1	7	-28

(16) O=C(CSc1nnc(-c2ccncc2)o1)N1CCCC1
(17) C/C(Cl)=C/Cn1c(SCc2cccc(Br)c2)nc2c1c(=O)[nH]c(=O)n2C
(18) CCN(CC)c1ccc(C(=O)OCC(=O)c2ccccc2)cc1
(19) O=c1n(-c2cccc(Cl)c2)c(=O)n2n1CCC2
(20) CSc1nc(C)cc(SCCOC(=O)Nc2ccccc2)n1

screen / no.	16	17	18	19	20
Sa growth inh	106	x	97	109	97
Sa growth inh second temp	87	x	95	81	65
GIV-Gai inh	102	104	96	x	107
HCMV UL50-53 inh	-16	7	-10&-3	-4	0

# Compound profiles, from the list above. Order of screens: Sa growth inh | Sa growth inh second temp | GIV-Gai inh | HCMV UL50-53 inh
# Results for C#CCN1CCS(=O)(=O)CC1 = 96 | 92 | 108 | -16
# Results for Cc1ccc2c(c1)C(c1ccc(F)cc1)N(C(=O)COc1ccc(Cl)cc1Cl)CC(=O)N2 (configuration not stated) = 88 | 69 | 103 | -12
# Results for CSc1nc(C)cc(SCCOC(=O)Nc2ccccc2)n1 = 97 | 65 | 107 | 0
# Results for COc1cc2ncnc(NC3CCCCC3)c2cc1OC = 102 | 94 | 133 | 7

# The results go on.
(21) NC(=O)COc1ccc(C2c3c(oc4ccccc4c3=O)C(=O)N2CCCO)cc1 (configuration not stated)
(22) CCC(=O)Nc1ccc2oc(-c3ccc(F)cc3)nc2c1
(23) Cc1cc(C)cc(S(=O)(=O)Nc2cnc(N(CC(C)C)CC(C)C)c(C(=O)O)c2)c1
(24) O=C(COc1ccc(-c2nc3ccccc3s2)cc1)N1CCOCC1
(25) COCCCNC(=O)Nc1cc(C(=O)NCc2ccc(OC)cc2)ccc1N1CCCC1

screen / no.	21	22	23	24	25
Sa growth inh	101	x	x	73	98
Sa growth inh second temp	107	x	x	81	89
GIV-Gai inh	103	107	130	x	102
HCMV UL50-53 inh	-5	-35	-20	-25	x

(26) Cc1ccc(-c2nnc(SCC(=O)N3CCN(CCO)CC3)n2-c2ccccc2)cc1
(27) O=C(NCC(c1cccnc1)N1CCc2ccccc2C1)C(=O)Nc1ccc(Cl)cc1 (configuration not stated)
(28) COc1ccccc1CN1CCC(CNC(=O)c2cnn(-c3cccc(Cl)c3)c2C2CCN(C(=O)OC(C)(C)C)CC2)CC1
(29) CC(NC(=O)Nc1cc(Cl)ccc1Cl)c1c(-n2cccc2)sc2c1CCCC2 (configuration not stated)
(30) NC(=O)c1cc2n(n1)C(C(F)(F)F)CC(c1ccc(Cl)cc1)N2 (configuration not stated)

screen / no.	26	27	28	29	30
Sa growth inh	x	101	93	105	72
Sa growth inh second temp	x	82	63	94	60
GIV-Gai inh	99	107	105	99	102
HCMV UL50-53 inh	-16	-20	x	-15	-41

# Of the compounds above, 2 contain two or more sulfur atoms:
(12) O=C1CCC(=O)N1CCSSCCN1C(=O)CCC1=O
(20) CSc1nc(C)cc(SCCOC(=O)Nc2ccccc2)n1

screen / no.	12	20
Sa growth inh	101	97
Sa growth inh second temp	93	65
GIV-Gai inh	99	107
HCMV UL50-53 inh	-14	0

# Other structures.
(31) O=C(O)c1ccc(-c2nc3ccccc3[nH]2)cc1
(32) CCOc1ccccc1N1CCN(CC(=O)C(C#N)c2nc(C)cs2)CC1 (configuration not stated)
(33) Cc1ccc(N2C(=O)CC(N3CCC(NS(=O)(=O)c4ccccc4)CC3)C2=O)cc1 (configuration not stated)
(34) CCCC(=O)c1cc2c(cc1NC(=O)c1ccccc1F)OCCO2
(35) CC(C)N(C)C1CCN(S(=O)(=O)c2ccc3[nH]c(=O)ccc3c2)CC1

screen / no.	31	32	33	34	35
Sa growth inh	113	77	93	112	102
Sa growth inh second temp	92	72	102	89	84
GIV-Gai inh	99	x	108	100	100&103
HCMV UL50-53 inh	-18	-12	2	x	x

(36) O=C(Nc1ccncc1)c1cc(-c2ccccc2)oc1C(F)(F)F
(37) O=C(O)c1ccc(N2CCN(c3cccc(Cl)c3)CC2)c(NS(=O)(=O)c2ccccc2)c1
(38) CCCn1c(=O)/c(=C\c2ccco2)s/c1=C(/C#N)c1nc2ccccc2s1
(39) Cc1ccc(-n2c(=O)c3c(cnn3C)n(CC(=O)Nc3cc(C)ccc3C)c2=O)cc1
(40) CCc1nnc2n1NC(c1ccccc1)C(C(=O)Nc1ccccc1)S2 (configuration not stated)

screen / no.	36	37	38	39	40
Sa growth inh	84	x	92	99	87
Sa growth inh second temp	92	x	74	88	83
GIV-Gai inh	104	105	x	96&99	101
HCMV UL50-53 inh	-16	-22	-29	-15&-19	-12

(41) O=C(Cn1c(=O)n(Cc2ccco2)c(=O)c2oc3ccccc3c21)Nc1cccc(Cl)c1
(42) COc1ccccc1NC(=O)CSC1=Nc2ccccc2C2=NC(CCC(=O)NCc3ccco3)C(=O)N12 (configuration not stated)
(43) CCc1ccc(-n2nnc(-c3nsc(NC(=O)c4ccccc4Cl)n3)c2C)cc1
(44) COc1cc(CC(=O)Nc2cc(Cl)ccc2Sc2nncn2C)cc(OC)c1OC
(45) CCc1ncc(C(=O)NCc2cccc(Cl)c2)c(C)n1

screen / no.	41	42	43	44	45
Sa growth inh	88	79	96	72	x
Sa growth inh second temp	79	88	94	90	x
GIV-Gai inh	102	102	102	x	106
HCMV UL50-53 inh	-14	x	-2	-11	12

(46) CC1CCCC(NC(=O)CCn2cnc3onc(-c4ccc(F)cc4)c3c2=O)C1C (configuration not stated)
(47) COCCN(C(=S)Nc1cc(F)cc(F)c1)C1CCN(C(C)=O)CC1
(48) O=C1OC(c2ccc(Cl)c([N+](=O)[O-])c2)=N/C1=C\c1cc(Br)ccc1F
(49) Cc1cc(C)n2c(SCc3ccccc3)nnc2n1
(50) CCCOc1ccc(C(=O)Nc2ccc(NC(=O)c3ccco3)cc2)cc1

screen / no.	46	47	48	49	50
Sa growth inh	96	105	x	101	130
Sa growth inh second temp	110	58	x	80	86
GIV-Gai inh	96	105	101	x	99
HCMV UL50-53 inh	0	x	-61	-24	x

(51) Cc1cccc(Nc2nc(Nc3cccc(C)c3)nc(N3CCOCC3)n2)c1
(52) Cc1c(Cl)cccc1NC(=O)Nc1ccc(SCc2cc(=O)n3c(ncn3C(C)C)n2)cc1
(53) O=C(C1=C(Nc2ccc(O)cc2)CCCC1)C(F)(F)F
(54) COc1cc(OC)cc(C(=O)Nc2cc3c(cc2N2CCCC2)n(C)c(=O)c(=O)n3C)c1
(55) CCOC(=O)N1CCN(C(=O)CSc2ccccc2)CC1

screen / no.	51	52	53	54	55
Sa growth inh	103	x	65	96	94
Sa growth inh second temp	64	x	62	88	100
GIV-Gai inh	105	102	105	104	105
HCMV UL50-53 inh	-19	-28	-18	x	5

(56) CCn1c(=O)c(-c2noc(C(=O)N3CCc4ccccc4C3)n2)nn(-c2ccccc2)c1=O
(57) CC1Cc2cc(S(=O)(=O)N3CCC(C(N)=O)(N4CCCCC4)CC3)ccc2N1C(=O)C1CC1 (configuration not stated)
(58) O=C1CCCCC1Sc1nnc(-c2ccc3c(c2)OCO3)n1-c1ccccc1 (configuration not stated)
(59) NC(=O)c1c(NC(=O)CCN2C(=O)c3ccccc3C2=O)sc2c1CCC2
(60) O=C(CSc1c2c(nc3ccccc13)CCC2)Nc1cccc(Cl)c1

screen / no.	56	57	58	59	60
Sa growth inh	x	x	107	x	101
Sa growth inh second temp	x	x	101	x	94
GIV-Gai inh	100	105	x	106	103
HCMV UL50-53 inh	-86	-1	-10	21	x

(61) CC(=O)c1ccc(NC(=O)CN(C)S(=O)(=O)c2cccc3nsnc23)cc1
(62) CCc1cc2c(cc3c(=O)n(CC(=O)NCCc4ccc(OC)c(OC)c4)ncn32)s1
(63) Cc1ccc(-c2noc(CNC(=O)c3ccc(Br)o3)n2)cc1
(64) Cc1cc(C)cc(C(=O)N(Cc2nc(-c3ccc(Cl)cc3)no2)C(C)C)c1
(65) COc1ccc(C)cc1NS(=O)(=O)c1c(C(=O)N2CCCCCC2)c(C)n(C)c1C

screen / no.	61	62	63	64	65
Sa growth inh	102	94	102	106	87
Sa growth inh second temp	91	79	98	89	90
GIV-Gai inh	107	95	107	99	102
HCMV UL50-53 inh	-84	-22	2	-30	x

# The final 4 compounds of the section above come first, to join the parts.
(62) CCc1cc2c(cc3c(=O)n(CC(=O)NCCc4ccc(OC)c(OC)c4)ncn32)s1
(63) Cc1ccc(-c2noc(CNC(=O)c3ccc(Br)o3)n2)cc1
(64) Cc1cc(C)cc(C(=O)N(Cc2nc(-c3ccc(Cl)cc3)no2)C(C)C)c1
(65) COc1ccc(C)cc1NS(=O)(=O)c1c(C(=O)N2CCCCCC2)c(C)n(C)c1C
(66) COC(=O)c1sc2cccc(F)c2c1S(=O)(=O)NC(C)c1ccccc1 (configuration not stated)
(67) COc1cccc(CC(=O)Nc2ccc(-c3csc(C)n3)cc2)c1
(68) CS(=O)(=O)Nc1nc2ccccc2[nH]1
(69) CCOc1ccc(NC(=O)CC2C(=O)N(c3ccc(F)cc3)C(=O)N2CCc2sccc2C)cc1 (configuration not stated)
(70) O=C(CSc1nsc(SCC(=O)c2ccccc2)n1)c1ccccc1

screen / no.	62	63	64	65	66	67	68	69	70
Sa growth inh	94	102	106	87	93	98	91	102	103
Sa growth inh second temp	79	98	89	90	79	85	96	82	98
GIV-Gai inh	95	107	99	102	100	105	x	103	105
HCMV UL50-53 inh	-22	2	-30	x	x	x	-6	-37	x

(71) c1ccc(CNCc2ccc3c(c2)OCO3)cc1
(72) O=C1c2nccnc2C(=O)N1c1cccc(C(F)(F)F)c1
(73) O=C1/C(=C\c2cccs2)Sc2ccc3ccccc3c21
(74) Cc1csc2nc(CSc3nc4ccc(Cl)cc4c(=O)n3CC(C)C)cc(=O)n12
(75) Cc1onc(-c2ccccc2)c1C(=O)Oc1ccccc1

screen / no.	71	72	73	74	75
Sa growth inh	93	98	x	104	77
Sa growth inh second temp	89	87	x	98	76
GIV-Gai inh	x	100	100	x	x
HCMV UL50-53 inh	-9	-31	-12	-2	-33

# Rewritten tab-delimited: part of the list above
no.	Compound	Sa growth inh	Sa growth inh second temp	GIV-Gai inh	HCMV UL50-53 inh
75	Cc1onc(-c2ccccc2)c1C(=O)Oc1ccccc1	77	76	x	-33
74	Cc1csc2nc(CSc3nc4ccc(Cl)cc4c(=O)n3CC(C)C)cc(=O)n12	104	98	x	-2

# (more compounds)
(76) CCOC(=O)c1[nH]c(C)c(CCC(=O)NCc2ccc(CC)cc2)c1C
(77) CCC(C)C1COC(c2cccn2Cc2c(C)cc(C)cc2C)=N1 (configuration not stated)
(78) Cc1ccc(Cn2c3ccccc3c3nnc(NCC4CCCO4)nc32)cc1 (configuration not stated)
(79) Cc1cccc(C)c1NC(=O)Cn1c(=O)cc(C(=O)NCc2ccccc2)c2ccccc21
(80) Cc1nn2c(N)c(C#N)cnc2c1C(N)=O
(81) Cc1cccc(OCc2nc(-c3ccc(OCC(N)=O)cc3)no2)c1
(82) Cc1cc(NCCc2ccccc2)c2nncn2n1
(83) O=c1c(Cl)c(NCC2CCCO2)cnn1Cc1ccccc1 (configuration not stated)

screen / no.	76	77	78	79	80	81	82	83
Sa growth inh	74	92	102	x	106	96	93	96
Sa growth inh second temp	86	93	80	x	103	80	78	101
GIV-Gai inh	99	98	104	106	104	100	110	x
HCMV UL50-53 inh	x	x	-29	2	-10	-10	-13	-21
